Assay outcomes from PubChem BioAssay.
VDR inhibitor: vitamin D3 receptor (human) inhibition; P11473; VDR-SRC2-3 peptide fluorescence polarization, 2 h; Potency, µM, without a hit: max response, negative = inhibition, hits mostly inhibitors; 400,000 tested, 0.93% active; active = well fitted inhibition curve with a large enough effect; inconclusive = small, poorly fitted or top-dose-only effect, or another doubt; inactive = no such curve, though single readings can be large or run the other way; note: series mostly up to about 120 µM
Target sequence (P11473 whole entry, looked up): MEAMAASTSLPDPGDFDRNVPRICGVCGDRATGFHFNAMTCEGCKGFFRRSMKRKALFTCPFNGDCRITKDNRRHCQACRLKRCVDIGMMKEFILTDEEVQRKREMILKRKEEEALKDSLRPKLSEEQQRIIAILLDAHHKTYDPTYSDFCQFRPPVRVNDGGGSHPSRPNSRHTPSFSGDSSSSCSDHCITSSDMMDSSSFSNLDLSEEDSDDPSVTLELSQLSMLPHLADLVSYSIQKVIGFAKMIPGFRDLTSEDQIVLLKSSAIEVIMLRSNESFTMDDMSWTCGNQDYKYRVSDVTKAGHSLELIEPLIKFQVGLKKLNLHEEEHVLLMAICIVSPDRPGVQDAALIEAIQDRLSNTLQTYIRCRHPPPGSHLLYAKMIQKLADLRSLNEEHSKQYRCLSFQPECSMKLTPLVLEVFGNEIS
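Reagent solutions, kept cold and dark, are dispensed first; compounds are then pinned in at 23 nl, plates briefly spun, and incubated 2 h at ambient temperature. Inhibition of VDR–SRC2-3 peptide binding is read by fluorescence polarization.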
The depositor's hits bear a star; ? = inconclusive; & = joins results of further samples; [ ] = remark or other dose. % is set by controls: 0 for no effect and ±100 for the full control effect; potency is the fitted concentration of half-maximal effect.

SMILES	VDR inhibitor
CCCOc1ccc(/C(O)=C2/C(=O)C(=O)N(CCCOC)C2c2ccncc2)cc1 (stereo not given)	?
O=C(CCN1CCCCC1)Nc1cccc(Cl)c1	-12%
Cc1nn(Cc2ccccc2)c(Cl)c1/C=C/C(=O)OC(C(=O)NC(N)=O)C(C)C (stereo not given)	-15%
C=CCNC1=C(Cl)C(=O)N(c2cccc(Cl)c2Cl)C1=O	-19%
CCCOc1ccc(C2c3c(-c4ccccc4O)n[nH]c3C(=O)N2CCc2ccccc2)cc1OCC (stereo not given)	9%
Cc1ccc(C(=O)Nc2ccc(S(=O)(=O)NCc3ccco3)cc2)cc1	-3%
COCCCNC(=O)CN(Cc1ccccc1)S(=O)(=O)c1ccccc1	7%
Cc1cc(C)nc(N2C(=O)CC(Cc3ccccc3)C2=O)n1 (stereo not given)	6%
CCCCCCC[C@@H](C/C=C/CCC(=O)O)OC	-15%
CC(=O)Nc1cccc(NC(=O)CSc2nc3ccccc3o2)c1	-6%
COC(=O)c1cc(C#N)c(Oc2ccc(OC)cc2)nc1C	1%
Cc1[nH]nc2c1C(c1cnn(C)c1)C(C#N)=C(N)O2 (stereo not given)	-12%
O=Cc1cn(CCC(=O)O)nc1-c1cccc2ccccc12	14%
Cc1ccc(Cl)cc1N1CCN(C(=O)c2ccc(C)c(-n3c(C)nc4cccnc43)c2)CC1	7%
O=[N+]([O-])c1cccc(-n2nnnc2CN2CCCCCC2)c1	8%
N#Cc1ccc(CN2CC3(CCN(C(=O)c4cc(C(F)(F)F)cc(C(F)(F)F)c4)CC3)C2)cc1	0%
CN(C)CCn1nnnc1SCC1=C(C(=O)O)N2C(=O)[C@@H](NC(=O)Cc3csc(N)n3)[C@@H]2SC1	?
CCc1ccc(-c2csc(NC(=O)C3=COCCO3)n2)cc1	-10%
CCOc1ccc(NC(=O)Cn2c(=O)n(Cc3nc(-c4ccccc4)no3)c(=O)c3ccccc32)cc1	5%
COc1ccc(C(=O)CC2(O)C(=O)N(Cc3cccc(C(F)(F)F)c3)c3ccccc32)cc1 (stereo not given)	-8%
CC(=O)NS(=O)(=O)c1ccc(N=c2ssc3c2-c2cc(C)c(C)cc2NC3(C)C)cc1	-15%
CN(C)C(CNC(=O)CNC(=O)c1ccc2ccccc2c1)c1ccccc1 (stereo not given)	3%
Cc1csc(NC(=O)c2cn3ccccc3n2)n1	-9%
COc1ccc(CNC(=O)C2CCN(S(=O)(=O)c3c(C)noc3/C=C/c3ccccc3F)CC2)cc1	-2%
COc1c(C(=O)Nc2c(C)n(C)n(-c3ccccc3)c2=O)ccc2ccccc12	-13%

Individual results from above.
VDR inhibitor, `COc1ccc(CNC(=O)C2CCN(S(=O)(=O)c3c(C)noc3/C=C/c3ccccc3F)CC2)cc1` : -2%
VDR inhibitor, `Cc1ccc(C(=O)Nc2ccc(S(=O)(=O)NCc3ccco3)cc2)cc1` : -3%

New compounds follow
SMILES	VDR inhibitor
Cc1ccc(-c2nc3ccccc3c(=O)n2N)cc1	-11%
C/C(=N\NC(=O)CSCc1ccc([N+](=O)[O-])cc1)c1ccccc1O	-28%
C=CCOc1ccc(CNc2ccc3[nH]c(=O)[nH]c3c2)cc1	-8%
O=C1CCCCC1(c1ccccc1)c1ccccc1	-3%
O=C(COC(=O)Cc1c[nH]c2ccccc12)NC1CCS(=O)(=O)C1 (stereo not given)	-16%
O=[N+]([O-])c1cn(-c2nc(-c3ccco3)cc(C(F)(F)F)n2)cn1	0%
CCN(CC(=O)Nc1ccc(NC(C)=O)cc1)C(=O)c1cccc(S(=O)(=O)N2CCCC2)c1	-13%
CC(C)c1ccc(CC(NC(=O)c2ccccc2)C(=O)NCC(=O)O)cc1 (stereo not given)	-4%
O=C(COC(=O)c1ccc(Cl)nc1)NC(=O)c1ccc(OC(F)F)cc1	-11%
CC(C(=O)N1CCN(C(=O)c2ccco2)CC1)n1sc2ccccc2c1=O (stereo not given)	-6%
N#Cc1c(NC(=O)c2cnccn2)sc2c1CCCC2	-2%
O=C(NCCN1CCOCC1)c1ccc2c(c1)N(Cc1ccccc1F)C(=O)CS2	8%
Cc1cc(C)c2nc(SCC(=O)N3CCCCC3)c(C#N)cc2c1	3%
Cc1cc(-c2nc3ncccc3o2)ccc1NC(=O)c1ccc(Br)cc1	1%
Fc1ccc(C2CCCN2Cc2nc(Cc3ccccc3)no2)cc1 (stereo not given)	12%
Cc1ccc(Cn2c(=N)n(CC(=O)c3ccc([N+](=O)[O-])cc3)c3ccccc32)cc1	-20%
Cc1cccc(-n2cc(-c3ccccc3)[nH]c2=S)c1	11%
O=C(NCCN1CCOC1=O)C1CCC(=O)N(CCc2ccc(Cl)cc2)C1 (stereo not given)	-13%
Cc1ccc(OCCC(=O)OCC(=O)Nc2ccc3[nH]c(=O)[nH]c3c2)cc1	-16%
COc1ccc(-c2cccc(NS(=O)(=O)c3cccc([N+](=O)[O-])c3)c2)nn1	2%
O=S(=O)(Nc1nc2ccccc2nc1Nc1ccc2c(c1)OCO2)c1ccc(F)cc1	-8%
Cc1cc2nc(C3CCCN(C(=S)Nc4ccccc4)C3)[nH]c2cc1C (stereo not given)	2%
CCC1CCc2sc(C(=O)N(C)CC(=O)Nc3cccc(OC)c3)cc2C1 (stereo not given)	-15%
CCOC(=O)c1ccc(NC(=O)CSc2nnc(COc3ccccc3OC)n2CC)cc1	3%
Oc1c(C(Nc2nc3ccccc3s2)c2ccco2)ccc2cccnc12 (stereo not given)	-21%

Arranged by value in VDR inhibitor (low to high): some entries from above
SMILES	VDR inhibitor
Cc1nn(Cc2ccccc2)c(Cl)c1/C=C/C(=O)OC(C(=O)NC(N)=O)C(C)C (stereo not given)	-15%
Cc1cc(C)c2nc(SCC(=O)N3CCCCC3)c(C#N)cc2c1	3%
COCCCNC(=O)CN(Cc1ccccc1)S(=O)(=O)c1ccccc1	7%

(listing goes on)
SMILES	VDR inhibitor
CC(=O)Nc1c(C(=O)O)[nH]c2ccccc12	-18%
COC(=O)c1ccc(NS(=O)(=O)c2ccc3c(c2)n(C)c(=O)n3C)cc1	-14%
COc1ccc(C(=O)Nc2nncs2)cc1S(=O)(=O)N1CC(c2ccccc2)CC1=O (stereo not given)	1%
CCCCc1ccc(-c2csc(/C(C#N)=C\c3ccco3)n2)cc1	14%
CC(=O)Oc1cccc(N2C(=O)C3C(C2=O)C2C=CC3C23CC3)c1 (stereo not given)	4%
Cc1ccc(O)c(-c2ccnc3cc(-c4ccc(Cl)cc4)nn23)c1	-8%
Cc1cc(C(F)(F)F)nn1Cc1n[nH]c(=S)n1-c1ccc(F)cc1	-13%
O=C(CN1CCN(Cc2ccccc2)CC1)NCc1ccccc1Cl	3%
O=c1[nH]nc(-c2ccc(F)cc2)cc1Cc1ccc(F)cc1	-8%
COc1ccc2c(c1OC)C(=O)N(c1cccc(C)c1)C2=O	17%
CCOc1ccc(NC(=O)CCCc2nnc3n(C)c(=O)c4sccc4n23)cc1	-2%
Cc1ccccc1NC(=O)CSc1nnc2ccc(-c3ccncc3)nn12	-16%
CNCC(O)Cn1c2c(c3ccccc31)CCCC2 (stereo not given)	8%
CCN(CC)S(=O)(=O)c1ccc(N2CCOCC2)c(NC(=O)C(C)Oc2ccc(F)cc2)c1 (stereo not given)	5%
O=C(NC1CCCCCCC1)c1ccc(F)cc1	-12%
Cc1ccc2cc(C#N)c(NCc3ccccc3)nc2c1	-4%
O=C(NCC1c2ccccc2CCN1C(=O)CN1CCOCC1)C1CCCCC1 (stereo not given)	17%
N#CC(C(=O)NCCc1ccccc1)c1nc2ccccc2nc1N1CCCCC1 (stereo not given)	23%
CCCN(CCC)c1ccc(C(O)c2nnc(-c3ccccc3)o2)cc1 (stereo not given)	-1%
COC(=O)C1CCN(C(=O)NC(C)(C)C)CC1	-1%
Oc1[nH]c2ccc(Br)cc2c1N=Nc1nn[nH]n1	-16%
Cc1ccc(OCCC(=O)OCC(=O)Nc2ccc(C)c(S(=O)(=O)N3CCOCC3)c2)cc1	21%
COc1ccc(O)c(CN2CCN(C/C=C/c3ccccc3)CC2)c1	-14%
CCOC(=O)c1ccc(NC(=S)N(CCCN2CCN(CC)CC2)Cc2cccs2)cc1	14%
O=C(Nc1cccc(S(=O)(=O)N2CCCC2)c1)c1cc(=O)[nH]c2ccccc12	-23%

An excerpt from above in order of molecular weight, ascending.
SMILES	VDR inhibitor
CC(=O)Nc1c(C(=O)O)[nH]c2ccccc12	-18%
CNCC(O)Cn1c2c(c3ccccc31)CCCC2 (stereo not given)	8%
Cc1cc(C(F)(F)F)nn1Cc1n[nH]c(=S)n1-c1ccc(F)cc1	-13%
O=C(CN1CCN(Cc2ccccc2)CC1)NCc1ccccc1Cl	3%
O=C(Nc1cccc(S(=O)(=O)N2CCCC2)c1)c1cc(=O)[nH]c2ccccc12	-23%
O=C(NCC1c2ccccc2CCN1C(=O)CN1CCOCC1)C1CCCCC1 (stereo not given)	17%
Cc1ccc(OCCC(=O)OCC(=O)Nc2ccc(C)c(S(=O)(=O)N3CCOCC3)c2)cc1	21%

A second format for two compounds above.
| compound | VDR inhibitor |
| --- | --- |
| CNCC(O)Cn1c2c(c3ccccc31)CCCC2 (stereo not given) | 8% |
| CCN(CC)S(=O)(=O)c1ccc(N2CCOCC2)c(NC(=O)C(C)Oc2ccc(F)cc2)c1 (stereo not given) | 5% |

The list continues.
SMILES	VDR inhibitor
CCOc1cc(-c2nnc(SCC(=O)Nc3ccc(F)c(F)c3)nc2-c2ccc(OC)c(OCC)c2)ccc1OC	18%
CC(C)C(C(=O)OCC(=O)c1ccccc1)N1C(=O)C2C3C=CC(C3)C2C1=O (stereo not given)	-13%
COc1cccc2c1OC1(C)CC2NC(=O)N1Cc1ccccc1 (stereo not given)	13%
CN(C)CCNC(=O)Nc1ccc(Cl)c(Cl)c1	-5%
CC(C)(C)OC(=O)C[C@H]1C/C=C\C[C@@H](CC(=O)N[C@@H](CO)Cc2ccccc2)C(=O)N2CCC[C@@H]2COC1=O	-10%
Cc1cc(C)c(C(=O)COC(=O)c2cccc(S(=O)(=O)NCc3ccccc3)c2)cc1C	4%
Cc1cc[n+]2cc(-c3cccc([N+](=O)[O-])c3)c(-c3cccc([N+](=O)[O-])c3)cc2c1	6%
COc1ccccc1C1(O)CCN(CC(=O)Nc2c(C)nn(C)c2C)CC1	-1%
O=C(Nc1nnc(-c2ccco2)s1)C1CCN(S(=O)(=O)c2ccc(Cl)cc2)CC1	-10%
CCOc1ccc(S(=O)(=O)Nc2ccc3c(c2)OCO3)cc1	-6%
CCS(=O)(=O)N1CCC(C(=O)Oc2ccc(Cl)cc2)CC1	-12%
COC(=O)c1ccc(Cl)cc1NC(=O)NCc1c(-n2cccc2)sc2c1CCCC2	8%
CC1=C(C(=O)Nc2ccccc2C)C(c2ccc(C)o2)N2C(=O)CSC2=N1 (stereo not given)	-20%
CCc1nc(OCc2ccccc2)c2sc3nc4c(cc3c2n1)COC(C)(C)C4	-15%
Cn1cccc1C1NC(=O)c2c(sc3c2CCC(C(C)(C)C)C3)N1 (stereo not given)	17%
CC(C)(C)CC(=O)Nc1nnc(CCc2ccccc2)s1	40%[activator]
CCCCCCCCCCCCCCCCO	6%&0%
Cn1c(O)c(N=NC(=O)CNC(=O)c2ccccc2)c2cc(Br)ccc21	-5%
COc1ccc2nc(NC(=O)c3ccc(S(=O)(=O)N4CCCC(C)C4)cc3)sc2c1 (stereo not given)	5%
O=C(c1ccc(Cn2c(=S)[nH]c3cc4c(cc3c2=O)OCO4)cc1)N1CCN(c2ccccc2)CC1	4%
CC(C)C1C(=O)Nc2ccc(S(=O)(=O)NCc3ccc(Cl)cc3)cc21 (stereo not given)	7%
c1ccc2cc(Cn3ccnc3)ccc2c1	1%
CCOc1ccc(C(=O)OCC(=O)Nc2ccc3c(c2)OCCO3)cc1OC	7%
C/C(=N/NS(=O)(=O)c1ccc(Cl)cc1)c1cccc(NC(=O)c2ccncc2)c1	-4%
COCCCNCCOc1ccccc1-c1ccccc1	14%
The listing continues.
SMILES	VDR inhibitor
Fc1ccccc1Nc1nc(NCc2ccco2)nc(N2CCOCC2)n1	-6%
CCOC(=O)N1CCN(C(=O)c2ccc3nc4ccsc4c(=O)n3c2)CC1	-13%
COC(=O)c1ccccc1NC(=O)Cn1ccnc1	9%
CC(=O)c1ccc(N2CCN(S(=O)(=O)c3cc(-c4noc(C)n4)ccc3C)CC2)cc1	11%
O=C(NCCc1c[nH]c2ccccc12)C(=O)NCC1OCCCN1S(=O)(=O)c1cc(F)ccc1F (stereo not given)	2%
CSc1cc(-c2ccc(Cl)cc2)[nH]c(=O)c1C#N	-4%
CCC(=O)N(Cc1ccco1)C1CC(=O)N(c2ccccc2)C1=O (stereo not given)	-5%
CC1CCCCN1C(=O)C(Cc1ccccc1)N1C(=O)C2CCCCC2C1=O (stereo not given)	-9%
CCCCc1cc2c(cn1)=C(OC(=O)c1cnc3ccccc3n1)C(C)(OC(=O)CC)C(=O)C=2 (stereo not given)	-18%
COc1cc2ccccc2cc1C(=O)N1CCN(C)CC1	1%
CCCOC1OC(=O)c2c1ccc(OC)c2OC (stereo not given)	-13%
Cc1ccc2cc(CCNC(=O)CCCc3ccccc3)c(=O)[nH]c2c1C	6%
NC(=O)[C@@H]1CCCNc2c(F)cc([N+](=O)[O-])cc2C(=O)N[C@@H](CO)C(=O)N[C@@H](Cc2ccc(O)cc2)C(=O)N1	-13%
COc1cc(Cl)c(C)cc1NC(=O)c1ccc(CN2C(=O)CCn3nc(C)cc32)cc1	2%
CCS(=O)(=O)N1CC(=O)N(c2ccc(Cl)cc2)C(C)(C(=O)NC2CCCCC2)C1 (stereo not given)	7%
COc1ccc(C(=O)N2CCC(C(=O)N3CCN(c4ccccc4)CC3)CC2)cc1	-3%
Cc1ccc2c(c1)COc1c3ccc(C(=O)N4CCOCC4)cc3nn1-2	?
CCOC(=O)N1CCN(S(=O)(=O)c2ccc3c(c2)NC(=O)CO3)CC1	5%

Only part of the results is shown; count on the stated rates, not on these rows.
